StopGo reporter: High Throughput Screening for Foot and Mouth Disease Virus Antivirals. AID 1159524, 2015. human cells with a luciferase reporter of 2A StopGo recoding; control for the full effect not named in the record. Potency, µM (series often up to 57.9 µM), for inactives: at the top dose signal change, negative = less light. 410,000 tested, 1.2% active; active = well fitted falling curve with a large enough effect; inconclusive = small, poorly fitted or top-dose-only effect; inactive = no such curve, though single readings can be large or run the other way; tested in HEK293T cells; further: nearly all actives have a fitted effect of over 45% in size; luciferase light after 4 h
RE007 growth inh: qHTS Assay for Inhibitors of the HIV-1 protein Vpr; S. pombe RE007 Vpr strain, BacTiter-Glo ATP luminescence, 24 h; control for the full effect not named in the record; Potency, µM (top dose mostly 92.2 µM), for inactives: at the top dose activity change, negative = less growth; 360,000 tested, 0.21% active; AID 651644, 2012; active = well fitted falling curve with a large enough effect; inconclusive = small, poorly fitted or top-dose-only effect; inactive = no such curve, though single readings can be large or run the other way;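 further: nearly all actives have a fitted effect of over 50% in size; the assay follows cell death caused by Vpr and the record does not say whether a fall means rescue or toxicity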
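Fission yeast RE007 carrying one integrated HIV-1 vpr copy, seeded at OD 0.01 in PMG+AL medium with 23 nL pinned compound. Grown 24 h at 30 degrees; viability read by BacTiter-Glo luminescence after 5 min.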
An asterisk follows results filed as active; [ ] = remark or other dose. On the % scale 0 is the no-effect control and ±100 the full control effect; potency means the concentration at half of the fitted maximal effect. These rows are one share of the data. The share of hits here may be higher or lower than overall.

How did CC(C)(C)S(=O)N1Cc2cc(C(=O)NCc3ccc(Oc4ccccc4)cc3)nc(-c3cccc(-c4cc5ccccc5o4)c3)c2[C@@H]1CCO (stereo partly drawn) do in these assays?
StopGo reporter: -13%; RE007 growth inh: -8%

What do the screens show for `CC(C)C[C@@H](CN1CCC[C@H]1CN1C(=O)C(=O)NC[C@@H]1Cc1ccccc1)N1C[C@H](Cc2ccc(O)cc2)N(CCc2ccccc2)C(=O)C1=O`?
StopGo reporter: 9%; RE007 growth inh: 1%

What do the screens show for `CC(C)c1ncc(CO)n1Cc1c(Cl)cccc1Cl`?
StopGo reporter: inconclusive; RE007 growth inh: 6%

Results for COc1ccccc1CNC(=O)c1cc(-c2cc(F)ccc2OC(C)C)n[nH]1 ?
StopGo reporter: 0%; RE007 growth inh: 9%

Results for CCc1nc2c(OCc3ccccc3C(=O)OC)cccn2c1N(C)C(=O)Nc1ccccc1OC ?
StopGo reporter: -1%; RE007 growth inh: -14%

What do the screens show for `COCCN1C[C@@H](CO)O[C@@H](n2cnc3c(NCc4cc(OC)c(OC)c(OC)c4)ncnc32)C1`?
StopGo reporter: -17%; RE007 growth inh: -2%

Results for COc1ccc(S(=O)(=O)N2CCOCC2)cc1NC(=O)CN1C(=O)NC2(CCC(C)CC2)C1=O (stereo not drawn) ?
StopGo reporter: -10%; RE007 growth inh: 8%

Results for CC(C)CC1C(=O)N(Cc2cn(CCC3OCCCO3)nn2)CCS(=O)(=O)N1Cc1ccc(-c2cccc(N(C)C)c2)cc1 (stereo not drawn) ?
StopGo reporter: -22%; RE007 growth inh: 1%

What do the screens show for `CCc1nc2ccc(C(=O)N3CCN(C(=O)c4ccco4)CC3)cn2c1N(C)Cc1ccc(OC)cc1`?
StopGo reporter: 0%; RE007 growth inh: -14%

How did CN(CC(=O)Nc1ccc(Cl)cc1)CC(=O)N1CCc2ccccc21 do in these assays?
StopGo reporter: 0%; RE007 growth inh: 12%

How did COc1ccc(-c2cc3nc(NCCN4CCCC4)n(C)c(=O)c3s2)cc1OC do in these assays?
StopGo reporter: -3%; RE007 growth inh: 0%

How did N#Cc1cccnc1N1CCN(C(c2ccnc3ccccc23)c2nnnn2-c2ccc3c(c2)OCCO3)CC1 (stereo not drawn) do in these assays?
StopGo reporter: -8%; RE007 growth inh: 5%

How did CC(C)(C)c1ccc(S(=O)(=O)NC(=O)C2(C)CCN2C(=O)c2cccc3ccccc23)cc1 (stereo not drawn) do in these assays?
StopGo reporter: -10%; RE007 growth inh: 7%[18.4 µM]

How did CC(C)(C)[C@@H]1C=C(C(N)=O)O[C@H](OCCCCO)C1 do in these assays?
StopGo reporter: -12%; RE007 growth inh: 2%

How did COc1cc(OC)cc(C(=O)OCC(=O)NC2CCCCCCC2)c1 do in these assays?
StopGo reporter: -22%; RE007 growth inh: 20%

Results for CC(=O)Nc1cc(-c2cccc(C(=O)N(C)C)c2)cn2c(-c3ccccc3)cnc12 ?
StopGo reporter: -9%; RE007 growth inh: 17%

How did CCCc1c(-c2cccc(Cl)c2)ncn1CCc1ccccc1OC do in these assays?
StopGo reporter: inconclusive; RE007 growth inh: -20%

How did C[C@@H]1CN([C@H](C)CO)C(=O)CCCn2cc(nn2)CO[C@H]1CN(C)C(=O)Oc1ccc2ccccc2c1 do in these assays?
StopGo reporter: inconclusive; RE007 growth inh: -2%

What do the screens show for `COc1ccc(NC(=O)C2Cc3c(-c4ccc5c(c4)OCO5)ccnc3O2)cc1OC` (stereo not drawn)?
StopGo reporter: 11µM*; RE007 growth inh: -23%

How did Cc1ccc(OC2CCN(C(=O)[C@H]3O[C@@H](n4cnc5c(N)ncnc54)[C@H](O)[C@@H]3O)CC2)cc1 do in these assays?
StopGo reporter: -27%; RE007 growth inh: 2%

What do the screens show for `CN(C(=O)c1cccc(NC(=O)Cc2cccc(NC(=O)C3CCN(C(=O)C4CCC4)CC3)c2)c1)C1CCC1`?
StopGo reporter: -14%; RE007 growth inh: -14%

Results for CC(C)OC(=O)N(C)C[C@H]1OCc2cnnn2CCCC(=O)N([C@@H](C)CO)C[C@H]1C ?
StopGo reporter: -10%; RE007 growth inh: -1%

What do the screens show for `CC(C)(C)n1nnnc1C(c1cc2ccccc2o1)N1CCN(C(=O)OCc2ccccc2)CC1` (stereo not drawn)?
StopGo reporter: -7%; RE007 growth inh: -14%

Results for CCCC[C@@H]1CC2=C(C(=O)OC(C)(C)O2)[C@@H](c2ccc(F)cc2)O1 ?
StopGo reporter: -15%; RE007 growth inh: 3%

How did COc1ccccc1C(NC(=O)C1CCN(CCc2ccc(Br)cc2)CC1)c1ccccn1 (stereo not drawn) do in these assays?
StopGo reporter: -13%; RE007 growth inh: 5%[18.4 µM]

What do the screens show for `COC(=O)[C@]12CCCCC=C1N(Cc1ccc3c(c1)OCO3)C(=O)[C@H](CC(=O)NCCCN1CCCC1=O)C2`?
StopGo reporter: -11%; RE007 growth inh: 13%

Results for O=C(c1ccc2c(c1)OCCO2)N1CCN(c2ccc(C(F)(F)F)cn2)CC1 ?
StopGo reporter: inconclusive; RE007 growth inh: -11%

What do the screens show for `COc1ccccc1N1CCN(CCCN2C(=O)C3CCCN3C2=O)CC1` (stereo not drawn)?
StopGo reporter: -8%; RE007 growth inh: 11%

How did CC1(C(=O)Nc2ccc3c(c2)OCCO3)CCN1Cc1ccccc1OC(F)F (stereo not drawn) do in these assays?
StopGo reporter: -23%; RE007 growth inh: -11%

Results for CC1CCCN(C(=O)Cn2c(=O)oc3cc(S(=O)(=O)N4CCCCC4C)ccc32)C1 (stereo not drawn) ?
StopGo reporter: -21%; RE007 growth inh: -15%

What do the screens show for `COC(=O)C[C@H]1c2cc(C(F)(F)F)ccc2S(=O)(=O)N1C1CCCCC1`?
StopGo reporter: 100%[activator]; RE007 growth inh: 14%

Results for CC(=O)Nc1cccc(-c2cc3nc(NCc4cccnc4)n(C)c(=O)c3s2)c1 ?
StopGo reporter: 35%[activator]; RE007 growth inh: 2%

How did C#CCOCCOCCOCCNc1nc(N2CCN(C(=O)C([C@@H](C)CC)n3cc(C(N)CO)nn3)CC2)nc(N2CCN(C(=O)C([C@@H](C)CC)n3cc(C(N)COC(=O)C(F)(F)F)nn3)CC2)n1 (stereo partly drawn) do in these assays?
StopGo reporter: -19%; RE007 growth inh: 18%

What do the screens show for `CCCNC(=O)C1(C)CCCN(Cc2ccc(-c3ccccc3)cc2)C1` (stereo not drawn)?
StopGo reporter: -19%; RE007 growth inh: 1%[18.4 µM]

How did CCC[C@@H]1CCCO[C@@](C(=O)NCc2ccccn2)(C(F)(F)F)C1 do in these assays?
StopGo reporter: -19%; RE007 growth inh: 16%

How did Cc1c(C(=O)NCc2ccc(Cl)c(Cl)c2)sc(=O)n1Cc1ccccc1F do in these assays?
StopGo reporter: -11%; RE007 growth inh: 0%[18.4 µM]

How did Cc1ccc2c(=O)n3c(nc2c1)C(Cc1ccccc1)NC(=O)c1cccnc1-3 (stereo not drawn) do in these assays?
StopGo reporter: 0%; RE007 growth inh: -9%

What do the screens show for `O=C(c1[nH]c(C(F)(F)F)nc1-c1ccccc1)N1CCN(c2cccc(C(F)(F)F)n2)CC1`?
StopGo reporter: -5%; RE007 growth inh: 1%

What do the screens show for `CC1(Cc2ccccc2C#N)C(=O)Nc2ccc(-c3ccccc3)cc21` (stereo not drawn)?
StopGo reporter: -20%; RE007 growth inh: -11%

How did O=C(N[C@H](CO)c1ccccc1)[C@H]1O[C@@H](n2ccc(=O)[nH]c2=O)[C@H](O)[C@@H]1O do in these assays?
StopGo reporter: -6%; RE007 growth inh: 0%

The list goes on; it opens with the six that closed the last part.
How did CCC[C@@H]1CCCO[C@@](C(=O)NCc2ccccn2)(C(F)(F)F)C1 do in these assays?
StopGo reporter: -19%; RE007 growth inh: 16%

How did Cc1c(C(=O)NCc2ccc(Cl)c(Cl)c2)sc(=O)n1Cc1ccccc1F do in these assays?
StopGo reporter: -11%; RE007 growth inh: 0%[18.4 µM]

How did Cc1ccc2c(=O)n3c(nc2c1)C(Cc1ccccc1)NC(=O)c1cccnc1-3 (stereo not drawn) do in these assays?
StopGo reporter: 0%; RE007 growth inh: -9%

What do the screens show for `O=C(c1[nH]c(C(F)(F)F)nc1-c1ccccc1)N1CCN(c2cccc(C(F)(F)F)n2)CC1`?
StopGo reporter: -5%; RE007 growth inh: 1%

What do the screens show for `CC1(Cc2ccccc2C#N)C(=O)Nc2ccc(-c3ccccc3)cc21` (stereo not drawn)?
StopGo reporter: -20%; RE007 growth inh: -11%

How did O=C(N[C@H](CO)c1ccccc1)[C@H]1O[C@@H](n2ccc(=O)[nH]c2=O)[C@H](O)[C@@H]1O do in these assays?
StopGo reporter: -6%; RE007 growth inh: 0%

Results for OCC[C@@H]1C[C@@H](O)[C@H](O)[C@]2(CCCO2)O1 ?
StopGo reporter: -13%; RE007 growth inh: 3%

What do the screens show for `CC(C)Nc1ncnc2c1ncn2[C@H]1CN(Cc2ccc(F)cc2)C[C@@H](CO)O1`?
StopGo reporter: -13%; RE007 growth inh: -9%

Results for OC[C@H]1O[C@@H](c2nc(-c3ccc4c(c3)CCO4)no2)[C@H](O)[C@@H](O)[C@H]1O ?
StopGo reporter: 8%; RE007 growth inh: 1%

What do the screens show for `O=C(Nc1ccc(S(=O)(=O)Nc2ncccn2)cc1)c1ccc(Br)cc1`?
StopGo reporter: -2%; RE007 growth inh: -12%

How did Cc1cccc(NC(=O)C(C)Sc2ncnc3sccc23)c1 (stereo not drawn) do in these assays?
StopGo reporter: inconclusive; RE007 growth inh: 8%

How did O=C(CSc1nnc(-c2cccnc2)o1)Nc1ccc(F)cc1 do in these assays?
StopGo reporter: 59%[activator]; RE007 growth inh: -10%

How did COc1ccc(CNC(=O)Nc2nc(C(N)Cc3ccc(F)cc3)cs2)cc1 (stereo not drawn) do in these assays?
StopGo reporter: -19%; RE007 growth inh: 0%[18.4 µM]

How did CCOc1ccc(CCN2C(=S)N([C@@H](CC(C)C)CN3CCC[C@@H]3CN3C(=S)NC[C@@H]3Cc3ccc(O)cc3)C[C@@H]2CC(C)C)cc1 do in these assays?
StopGo reporter: -18%; RE007 growth inh: -9%

What do the screens show for `CC1(C)CC(Cc2cccc(C(F)(F)F)c2)N(C(=O)OC(C)(C)C)C1` (stereo not drawn)?
StopGo reporter: -25%; RE007 growth inh: 10%

Results for C=CCC(NC(=O)N(C)C)(C(C)=O)C(=O)OC (stereo not drawn) ?
StopGo reporter: -8%; RE007 growth inh: 0%

What do the screens show for `COC(=O)C1=C(C(=O)OC)[C@@H]2N(Cc3ccccc3)c3ccccc3[C@@]23C[C@@H](C(=O)OC)N(C(=O)C2CCC2)C3=N1`?
StopGo reporter: -2%; RE007 growth inh: -2%

What do the screens show for `CCCNC(=O)C1(C)CCN(Cc2cc(C(F)(F)F)ccc2Cl)C1` (stereo not drawn)?
StopGo reporter: -24%; RE007 growth inh: 16%

What do the screens show for `CSCCC(c1nnnn1C1CCCC1)N1CCC2(CC1)C(=O)NCN2c1ccccc1` (stereo not drawn)?
StopGo reporter: -15%; RE007 growth inh: 0%

What do the screens show for `CCOC(=O)[C@]12CCCC=C1N(Cc1ccc(Cl)cc1Cl)C(=O)[C@H](CC(=O)N1CCSCC1)C2`?
StopGo reporter: -17%; RE007 growth inh: 25%

Results for COc1ccccc1CN1[C@@H](CC(C)=O)c2cc(C(F)(F)F)ccc2S1(=O)=O ?
StopGo reporter: 4%; RE007 growth inh: 8%

How did CCc1nc2ccc(C(=O)N3CCN(C(C)=O)CC3)cn2c1N(C)C(=O)c1cccc(OC)c1 do in these assays?
StopGo reporter: -2%; RE007 growth inh: 9%

Results for CN(C)[C@H]1CCN([C@H]2CS(=O)(=O)N[C@@H]2COCc2ccccc2)C1 ?
StopGo reporter: -1%; RE007 growth inh: 23%

What do the screens show for `CC(OC(=O)c1cccc(S(=O)(=O)N2CCOCC2)c1)C(=O)NCC1CCCCC1` (stereo not drawn)?
StopGo reporter: -18%; RE007 growth inh: -2%

How did Cc1noc(C)c1-c1ccc(C(=O)Nc2ccc(C(C)C)cc2)c2occc12 do in these assays?
StopGo reporter: inconclusive; RE007 growth inh: -11%[18.4 µM]

Results for CCc1nc2ccc(C(=O)NCCN3CCNC3=O)cn2c1N(CCC(C)C)CCN(C)C ?
StopGo reporter: -21%; RE007 growth inh: inconclusive

Results for COc1ccc(-c2ccc(CN3C(CC(C)C)C(=O)N(Cc4cn(CC5CCCCC5)nn4)CCS3(=O)=O)cc2)cn1 (stereo not drawn) ?
StopGo reporter: inconclusive; RE007 growth inh: 10%

What do the screens show for `COc1ccc(OC)c(C(=O)CCCCC(=O)c2cc(OC)ccc2OC)c1`?
StopGo reporter: -10%; RE007 growth inh: -16%

Results for COC(=O)[C@H]1C[C@H](OC(=O)NCC2CCCCC2)[C@@]2(O)CN(S(=O)(=O)c3ccc(C)cc3)CC2[C@H]1C(=O)OC (stereo partly drawn) ?
StopGo reporter: -17%; RE007 growth inh: -2%

What do the screens show for `COc1ccccc1NC(=O)N(C)C[C@H]1OCc2cnnn2CCCC(=O)N([C@H](C)CO)C[C@@H]1C`?
StopGo reporter: -10%; RE007 growth inh: -3%

What do the screens show for `CN(C(=O)c1cccc(NC(=O)Cc2cccc(NC(=O)C3CCN(C(=O)C4CC4)CC3)c2)c1)C1CC1`?
StopGo reporter: -25%; RE007 growth inh: 6%

Results for OC(c1ccccc1)(c1nc(/C=C/c2ccccc2)cs1)C(F)(F)F (stereo not drawn) ?
StopGo reporter: 14%; RE007 growth inh: 5%[18.4 µM]
